# Bioassay records deposited in PubChem BioAssay by National Center for Advancing Translational Sciences (NCATS).
# Cruzain inh noDet: cruzain (T. cruzi) inhibition without detergent | Potency, µM, for inactives: max response, negative = inhibition, usual class: inhibitors | AID 1476 | purified cruzain, Z-FR-AMC fluorescence, no detergent | P25779 | 200,000 tested, 2.3% active; active = well fitted curve in the direction sought with a large enough effect; inconclusive = small, poorly fitted or top-dose-only effect, or another doubt; inactive = no such curve, though single readings can be large; an effect the other way counts as inactive or inconclusive;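 note: plate controls were enzyme without inhibitor for no effect and buffer without enzyme for full effect; nearly all actives have a fitted effect of over 40% in size; top concentration of the series not given in the record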
# Target sequence (P25779 123-467 limits assumed): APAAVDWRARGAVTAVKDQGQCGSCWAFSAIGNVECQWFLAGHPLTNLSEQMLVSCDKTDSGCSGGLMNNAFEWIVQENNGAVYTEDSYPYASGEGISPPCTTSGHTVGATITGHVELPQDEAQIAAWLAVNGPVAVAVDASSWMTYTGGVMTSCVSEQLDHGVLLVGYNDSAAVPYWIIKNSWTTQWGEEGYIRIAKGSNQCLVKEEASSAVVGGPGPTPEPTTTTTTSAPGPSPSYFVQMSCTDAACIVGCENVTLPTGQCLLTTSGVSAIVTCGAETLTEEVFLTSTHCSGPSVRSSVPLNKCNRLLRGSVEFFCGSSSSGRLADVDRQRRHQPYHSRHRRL
#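 Purified cruzain at 1.5 nM, pre-incubated 15 min with compound at room temperature in 100 mM sodium acetate pH 5.5, 5 mM DTT, 0.00005% Triton X-100. Reaction started with 2 uM Z-FR-AMC; AMC fluorescence increase over 60 s gives rate.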
# StopGo reporter: FMDV 2A StopGo reporter, luciferase signal. human cells with a luciferase reporter of 2A StopGo recoding; control for the full effect not named in the record. Potency, µM (top dose mostly 57.9 µM), for inactives: top-dose signal change, negative = less light. 410,000 tested, 1.2% active. AID 1159524; active = well fitted falling curve with a large enough effect; inconclusive = small, poorly fitted or top-dose-only effect; inactive = no such curve, though single readings can be large or run the other way; tested in HEK293T cells; note: % is set by controls: 0 for no effect and ±100 for the full control effect; nearly all actives have a fitted effect of over 45% in size; luciferase light after 4 h
# SARS PLP yeast: SARS-CoV PLP inhibition in yeast. S. cerevisiae expressing SARS-CoV PLpro, growth rescue; control for the full effect not named in the record. Potency, µM (series often up to 32.9 µM), for the others: at the highest dose activity, positive = growth rescue. 330,000 tested, 0.19% active. AID 485353; note: 0% is about no effect; nearly all actives have a fitted effect of over 55% in size; growth read by luminescence after 48 h
# RE007 growth inh: less growth of the S. pombe RE007 Vpr strain. S. pombe RE007 Vpr strain, BacTiter-Glo ATP luminescence, 24 h; control for the full effect not named in the record. Potency, µM (highest dose often 92.2 µM), inactives show at the top dose activity change, negative = less growth. 360,000 tested, 0.21% active. AID 651644; active = well fitted falling curve with a large enough effect; inconclusive = small, poorly fitted or top-dose-only effect; inactive = no such curve, though single readings can be large or run the other way;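 note: % is set by controls: 0 for no effect and ±100 for the full control effect; nearly all actives have a fitted effect of over 50% in size; the assay follows cell death caused by Vpr and the record does not say whether a fall means rescue or toxicity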
#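 Fission yeast RE007 carrying one integrated HIV-1 vpr copy, seeded at OD 0.01 in PMG+AL medium with 23 nL pinned compound. Grown 24 h at 30 degrees; viability read by BacTiter-Glo luminescence after 5 min.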
# Cruzain inh Det: blocks cruzain activity in presence of Triton detergent. 200,000 tested, 0.43% active. Potency, µM, for the others: max response, negative = inhibition, actives largely listed as inhibitors. purified cruzain, Z-FR-AMC fluorescence, 0.01% Triton; active = well fitted curve in the direction sought with a large enough effect; inconclusive = small, poorly fitted or top-dose-only effect, or another doubt; inactive = no such curve, though single readings can be large; an effect the other way counts as inactive or inconclusive;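 note: plate controls were neutral wells for no effect and buffer without enzyme for full effect; nearly all actives have a fitted effect of over 40% in size; top concentration of the series not given in the record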
#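 Purified cruzain (1.5 nM final) was preincubated with compounds for 15 min at room temperature in 100 mM sodium acetate pH 5.5, 5 mM DTT, 0.01% Triton X-100. Reaction started with 2 uM Z-FR-AMC; AMC fluorescence change over 60 s gave activity.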
# MARV entry inh: Marburg virus entry inhibition; 300,000 tested, 1.8% active; Potency, µM (highest dose often 37.8 µM), inactives show at the highest dose activity change, negative = inhibition, most hits filed as inhibitors; Marburg virus pseudotyped entry inhibition, cell reporter; control for the full effect not named in the record; about a third of the inactives were read at about 46 µM; active = well fitted inhibition curve with a large enough effect; inconclusive = small, poorly fitted or top-dose-only effect, or effect the other way; inactive = flat fitted curve, though single readings scatter; tested in HEK293 cells; about a fifth of its hits are not listed in these tables; note: % is set by controls: 0 for no effect and ±100 for the full control effect; luciferase read-out
# NS1 inh: influenza NS1 inhibition; S. cerevisiae slowed by influenza A NS1, growth recovery by OD600; Potency, µM (titrated, usually from 46.1 µM), for inactives: at the highest dose activity, positive = more growth; 270,000 tested, 0.4% active; AID 2326; note: actives are rising curves; nearly all actives have a fitted effect of over 50% in size
#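 Growth recovery, yeast-based: influenza A NS1 expressed in S. cerevisiae causes slow growth, and suppressors are detected by OD600. The parent strain without NS1 is used as positive control.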
# LASV entry inh: inhibitors of Lassa virus binding or cell entry | Lassa virus pseudotype entry inhibition, cell reporter; control for the full effect not named in the record | AID 540256 | 300,000 tested, 1.2% active | Potency, µM (titrated, usually from 37.9 µM), for inactives: at the top dose activity change, negative = inhibition, most hits filed as inhibitors; active means well fitted inhibition curve with a large enough effect; inconclusive means small, poorly fitted or top-dose-only effect, or effect the other way; inactive means flat fitted curve, though single readings scatter; tested in HEK293 cells; note: % is set by controls: 0 for no effect and ±100 for the full control effect; nearly all actives have a fitted effect of over 50% in size; luciferase read-out
# An asterisk follows results filed as active; u = inconclusive; x = not tested or not shown; & = joins results of further samples; [ ] = another dose, or the depositor's remark. Unless noted, calls come from the whole dose curve; as a rule, active means well fitted rising curve with a large enough effect; inconclusive means small, poorly fitted or top-dose-only effect; inactive means no such curve, though single readings can be large or run the other way. Potency is the fitted concentration of half-maximal effect.
SMILES,Cruzain inh noDet,StopGo reporter,SARS PLP yeast,RE007 growth inh,Cruzain inh Det,MARV entry inh,NS1 inh,LASV entry inh
O=C(COC(=O)c1ccc(NS(=O)(=O)c2ccc3c(c2)OCCO3)cc1)NC1CCS(=O)(=O)C1 (centres undefined),x,5%,0%,3%,x,-10%[46.1 µM],0%,-11%[46.1 µM]
Cc1ccc(Oc2ccccc2NC(=O)CN2C(=O)NC3(CCCC3)C2=O)cc1,x,0%,0%,21%,x,x,4%,x
CC(C)c1ccc(NC(=O)CCc2ccccc2)cc1,x,50%[activator],-4%,3%,x,-22%,-42%,u
COc1cccc(/C=N/NC(=S)NC2CC3CCC2C3)c1OC (centres undefined),x,-5%,1%,7%,x,x,4%,x
COc1ccc(N(CC(=O)NC(C)(C)C)S(=O)(=O)c2ccccc2)cc1OC,-13%,22%,-9%,-10%,-7.9%,1%,-4%,-5%
Cc1ccccc1CC1(CO)CCCN(C(=O)CCC(F)(F)F)C1 (centres undefined),x,-5%,-5%,1%,x,-13%,-1%,2%
CC(=O)c1sc(NC(=O)C2CCN(C(=O)c3ccc(F)cc3)CC2)nc1-c1ccccc1,x,-26%,-3%,-1%,x,u,x,u
O=C(Nc1ccc(-c2nnc(-c3ccccc3)o2)cc1)c1ccc(Br)o1,x,2%,x,34%,x,4%,-35%,u
CC(=O)Nc1ccc2nc3c(=O)n(C)c(=O)n(C)c3nc2c1,x,1%,0%,-18%,x,0%,-2%,-6%
COC(=O)c1sccc1NC(=O)c1csc2c1CCCC2,-11%,6%,-16%,-5%,6.3%,-1%,-81%,-8%
O=C(CSCc1ccccc1)Nc1ccc(F)cc1F,x,21%,-1%,-17%,x,19%[46.1 µM],-5%,u
COc1cc(-n2c(-c3ccccc3)n[nH]c2=S)c(OC)cc1Cl,x,9%,2%,7%,x,x,11%,x
Nc1nonc1-n1nnc(C(=O)N/N=C/c2ccc(OCc3ccccc3)cc2)c1COc1ccc(F)cc1,x,-5%,0%,-2%,x,x,-2%,x
Cc1ccc(C(=O)CN(C(=O)c2ccc(Cl)c(Cl)c2)N2C(=O)C3CCCCC3C2=O)cc1 (centres undefined),6%,-14%,3%,-8%,0.1%,4%,1%,5%
COc1ccc(-c2cc(=O)c3c(OC)c(OC)c(OC)c(OC)c3o2)cc1,1%,0%&18%,x,-10%,0.9%,x,x,x
CCc1nnc(NC(=O)c2ccc(COc3ccccc3)o2)s1,u,11%,0%,-10%,6.0%,-4%,-1%,-2%
C=CCn1c(N)c(C(=O)NCc2ccco2)sc1=S,-26%,12%,-7%,8%,-6.7%,-11%,-10%,25%[14.3 µM]
Cc1ccc2c(c1)C1(C(=O)N2C)N2CC3(C)CN1CC(C)(C2)C3=O (centres undefined),-10%,x,11%,-6%,-3.2%,6%,-6%,5%
CCOC(=O)c1c(NC(=O)c2cc3n(n2)C(C(F)(F)F)CC(c2ccccc2)N3)sc(C)c1C (centres undefined),16µM*,-17%,10%,10%,-2.1%,u,4%,-15%
Cc1nn(Cc2c(Cl)cccc2Cl)c(C)c1NC(=O)Cn1nc([N+](=O)[O-])c(Cl)c1C,1%,-7%,7%,8%,-0.2%,-9%,25%,9%
Cc1cc(C(=O)COC(=O)Cc2n[nH]c(=O)c3ccccc23)c(C)n1-c1cccc(C(F)(F)F)c1,-7%,u,-17%,-24%,-6.9%,11µM*,9%,u
NC[C@@]12CCCC1C1CCC2C1 (some centres undefined),2%,x,-3%,x,2.5%,-1%,4%,x
COc1ccccc1C(=O)CN1C(=O)NC2(CCCCCC2)C1=O,x,12%,-2%,-10%,x,-6%,x,16%
COc1ccc(CNCC(O)COCc2cccs2)cc1 (centres undefined),11%,6%,10%,-15%,0.6%,-19%,0%,12%
N#CC1(NC(=O)COC(=O)c2ccc(Cl)nc2)CCCCC1,x,-3%,-6%,9%,x,0%,x,5%
O=[N+]([O-])c1cccc(-c2noc(-c3ccco3)n2)c1,x,44%[activator],2%,-19%,x,x,-2%,x
CCCc1cc(=O)oc2cc(C)cc(OCC(=O)NCc3cccnc3)c12,x,-7%,11%,-1%,x,x,-23%,x
CCOc1ccccc1Oc1cn[nH]c1-c1ccc(O)cc1O,x,u,0%,6%,x,u,6%,u
CCCCCOC(=O)CSc1nc2sc3c(c2c(=O)n1Cc1ccccc1)CC(C)(C)OC3,-3%,-26%,x,x,-1.4%,x,x,-12%[46.1 µM]
O=C(NC1CC1)c1ccc(CSCc2cccc(F)c2)o1,-15%,1%,-4%,4%,0.9%,x,-29%,x
CCC(CC)C(=O)Nc1cccc(/C(C)=N\NC(=O)c2ccc(C)s2)c1,-7%,21%,21%,-5%,0.4%,-7%,-14%,-6%
COCCN1CCn2c(nc3cc(NC(=O)c4cccs4)ccc32)C1,3%,x,3%,12%,4.9%,13%,u,u
Cc1cc(-c2nsc(=O)o2)c(S(C)(=O)=O)s1,-25%,3%,-3%,15%[3.69 µM],-27%,-3%,-82%,-6%
Cc1ccc2cc3cc(C(=O)NC4CC4)oc3nc2c1,x,32%[activator],-4%,-1%,x,x,-5%,x
Cc1cc(C(=O)COC(=O)CC2Sc3ccccc3NC2=O)c(C)n1-c1cccc(C(F)(F)F)c1 (centres undefined),-3%,12%,0%,-3%,-4.5%,1%,-7%,0%
Cc1ccc(C(=O)N2CCNC(=O)C2CC(=O)Nc2ccccc2)cc1 (centres undefined),x,-10%,15%,20%,x,x,3%,x
CCN(CC)C(=O)c1n[nH]c(=O)c2ccccc12,6%,4%,-1%,3%,0.5%,u,9%,-32%[14.3 µM]
Cc1c2cnn(-c3ccccc3)c(=O)c2c(C)n1C(C)C(=O)Nc1ccc(Br)cc1F (centres undefined),-22%,8%,x,x,-4.6%,-1%[46.1 µM],x,0%[46.1 µM]
CC(C)(C)C(=O)Nc1cc2nn(-c3ccccc3)nc2cc1Cl,-10%,50µM*,5%,-22%,-6.2%,0.41µM*,-7%,1.5µM*
Cc1ccc(C)c(NC(=O)CN(C)C(=O)c2oc3c(Cl)cccc3c2C)c1,x,-12%,-1%,-10%,x,u,x,-20%

# 6 entries from above, sorted by length of the SMILES, highest first:
SMILES,Cruzain inh noDet,StopGo reporter,SARS PLP yeast,RE007 growth inh,Cruzain inh Det,MARV entry inh,NS1 inh,LASV entry inh
Cc1c2cnn(-c3ccccc3)c(=O)c2c(C)n1C(C)C(=O)Nc1ccc(Br)cc1F (centres undefined),-22%,8%,x,x,-4.6%,-1%[46.1 µM],x,0%[46.1 µM]
Cc1ccc(C)c(NC(=O)CN(C)C(=O)c2oc3c(Cl)cccc3c2C)c1,x,-12%,-1%,-10%,x,u,x,-20%
CCC(CC)C(=O)Nc1cccc(/C(C)=N\NC(=O)c2ccc(C)s2)c1,-7%,21%,21%,-5%,0.4%,-7%,-14%,-6%
Cc1ccc(C(=O)N2CCNC(=O)C2CC(=O)Nc2ccccc2)cc1 (centres undefined),x,-10%,15%,20%,x,x,3%,x
COCCN1CCn2c(nc3cc(NC(=O)c4cccs4)ccc32)C1,3%,x,3%,12%,4.9%,13%,u,u
Cc1ccc2cc3cc(C(=O)NC4CC4)oc3nc2c1,x,32%[activator],-4%,-1%,x,x,-5%,x

# The results go on.
SMILES,Cruzain inh noDet,StopGo reporter,SARS PLP yeast,RE007 growth inh,Cruzain inh Det,MARV entry inh,NS1 inh,LASV entry inh
O=C(CN(C(=O)c1nsc(Cl)c1Cl)c1ccc(F)cc1)NC1CCCC1,x,15%,-3%,-3%,x,u,4%,5%
COc1ccc2ccccc2c1CN1CCN(C(=O)c2ccco2)CC1,x,u,-6%,10%,x,u,-29%,u
CCOc1ccc(NC(=O)N(C)CCc2c(C)nn(C)c2C)cc1,-5%,-5%,x,x,-1.8%,x,x,10%[46.1 µM]
CCCn1c(NCc2cccs2)nc2ccccc21,14%,0%,-2%,-12%,2.2%,-4%,-14%,11%
O=C(CCN1CCN(c2ccccc2)CC1)Nc1ccc2c(c1)OCO2,-26%,-8%,-7%,-23%,0.6%,-1%,1%,4%
CCOc1ccccc1CN1CCNC(=O)C1CC(=O)NCc1nccn1CC (centres undefined),x,-16%,6%,-5%,x,8%,0%,9%
CCOC(=O)N1CCN(C(=O)CNS(=O)(=O)c2cccs2)CC1,5%,-10%,-2%,8%,3.4%,10%,5%,5%
Cc1ccc(C)c(OCc2nnc(NC(=O)c3ccc4c(c3)OCO4)s2)c1,x,-18%,0%,9%,x,x,-1%,x
O=S1(=O)CCN(Cc2ccccc2Cl)CC1,5%,-9%,-13%,13%,3.6%,-6%,-1%,19%
C/C(=N\NC(=O)CN1CCN(S(=O)(=O)c2ccc(C)cc2)CC1)c1ccc(O)cc1,x,-23%,1%,7%,x,x,6%,x
CC(Sc1nc(-c2ccccc2)cc(C(F)(F)F)n1)C(=O)O (centres undefined),x,-9%,0%,-14%,x,8%[46.1 µM],4%,-6%
CCOc1ccc(N2CCCCn3c2nc2c3c(=O)[nH]c(=O)n2C)cc1,2%,x,4%,x,-4.8%,6%,0%,x
CC(=O)NC(CC(=O)N(Cc1ccccc1)c1cccc(C)c1)c1ccccc1 (centres undefined),x,2%,8%,8%,x,-16%,14%,-2%
CC(C)(C)NC(=S)NNC(=O)c1ccc2ncccc2c1,x,16%,-1%,12%,x,u,2%,21%[46.1 µM]
CC(=O)c1ccccc1OCCOCCOCCOc1ccccc1C(C)=O,x,u,0%,2%,x,-5%,4%,-16%
COc1cccc(CNC(=O)Cn2cc3c(n2)CCCC3)c1,-2%,-10%,6%,-12%,-1.6%,x,-13%,x
C=CCn1cccc(C(=O)Nc2cc(OC)cc(OC)c2)c1=O,x,18%,0%,-21%,x,u,x,u
